Bioassay records from PubChem BioAssay.
D2 PAM: potentiates the human D2 dopamine receptor allosterically; P14416; DiscoveRx D2 beta-arrestin cells, luminescence, 90 min; 100% = 57 uM dopamine signal; potentiation, % (no concentration beside the values); 0.23% of 360,000 active; AID 624464; active = potentiation of 50% or more; inconclusive = 30% to 50%; inactive = 30% or less;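 note: compound concentration not given in the record; tested on top of an EC20 dose of dopamine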
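PathHunter beta-arrestin assay in DiscoveRx D2 cells. Compounds were added with an EC20 of dopamine (50 nM final) for 90 min at 37 deg C. Luminescence was read 1 h after detection reagent, with 57 uM dopamine as the EC100 control.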
D2 agonist: activates the human D2 dopamine receptor; DiscoveRx PathHunter D2 beta-arrestin, luminescence, 90 min; 100% = 57 uM dopamine signal; AID 624465; 0.084% of 360,000 active; activation, % (concentration not given with the values); P14416; in the data active = activation above about 40%; inconclusive = about 15% to 40%; inactive = below about 15%; note: compound concentration not given in the record; the text of the record calls up to 30% inactive
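Agonist mode: compounds alone added to overnight-plated D2 PathHunter cells for 90 min at 37 C, with 57 uM final dopamine (EC100) defining full response. Beta-arrestin recruitment detected by chemiluminescent reagent, read after 1 h at ambient temperature.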
gsp antagonist: antagonists of gsp mutant (McCune-Albright syndrome). Potency, µM (series often up to 76.9 µM), for the others: at the top dose activity change, negative = inhibition, usual class: inhibitors. 0.4% of 340,000 active. gsp-mutant cells, cAMP HTRF, 30 min; control for the full effect not named in the record. AID 624288; active = falling curve of any shape with a large fitted effect; inconclusive = falling curve, mostly with a smaller effect; inactive = flat or rising curve; cell line not stated here;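 note: intracellular cAMP measured with PDE inhibitor Ro 20-1724 present during compound exposure; potency is the fitted concentration of half-maximal effect; % is set by controls: 0 for no effect and ±100 for the full control effect; nearly all actives have a fitted effect of over 65% in size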
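G418-selected cells were plated in DMEM/10% FBS for 16-24 h at 37C, then treated with compounds plus the PDE inhibitor […] (300 uM solution added) for 30 min at 37C. Intracellular cAMP was measured by HTRF after 30 min lysis at room temperature.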
CtBP-E1A inh: CtBP/E1A binding inhibition; AlphaScreen GST-E1A/His-CtBP binding, 1536-well; active compounds read low; control for the full effect not named in the record; activity change, % (no concentration beside the values); 0.49% of 340,000 active; AID 651724; in the data active means activity change below about -65%; inconclusive means about -30% to -65%; inactive means above about -30%; note: % is set by controls: 0 for no effect and ±100 for the full control effect
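Steps: dispense buffer (Tris pH 8.0, NaCl 300 mM, TCEP 1 mM, BSA, Tween 20); add 5X protein mix (GST-E1A, His-CtBP, 125 nM each); pin 23 nL compound; 2 h at 37 °C, dark; add 5X beads (50 ug/mL); 1 h; read.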
Six1-Eya2 blk: blocks human Six1 binding to Eya2. 0.56% of 360,000 active. activity change, % (test concentration not listed). AlphaScreen GST-Six1/His-Eya2 binding, biochemical; active compounds read low; control for the full effect not named in the record; in the data active = activity change below about -65%; inconclusive = about -30% to -65%; inactive = above about -30%; note: % is set by controls: 0 for no effect and ±100 for the full control effect
Target sequence (O00167 whole entry, looked up): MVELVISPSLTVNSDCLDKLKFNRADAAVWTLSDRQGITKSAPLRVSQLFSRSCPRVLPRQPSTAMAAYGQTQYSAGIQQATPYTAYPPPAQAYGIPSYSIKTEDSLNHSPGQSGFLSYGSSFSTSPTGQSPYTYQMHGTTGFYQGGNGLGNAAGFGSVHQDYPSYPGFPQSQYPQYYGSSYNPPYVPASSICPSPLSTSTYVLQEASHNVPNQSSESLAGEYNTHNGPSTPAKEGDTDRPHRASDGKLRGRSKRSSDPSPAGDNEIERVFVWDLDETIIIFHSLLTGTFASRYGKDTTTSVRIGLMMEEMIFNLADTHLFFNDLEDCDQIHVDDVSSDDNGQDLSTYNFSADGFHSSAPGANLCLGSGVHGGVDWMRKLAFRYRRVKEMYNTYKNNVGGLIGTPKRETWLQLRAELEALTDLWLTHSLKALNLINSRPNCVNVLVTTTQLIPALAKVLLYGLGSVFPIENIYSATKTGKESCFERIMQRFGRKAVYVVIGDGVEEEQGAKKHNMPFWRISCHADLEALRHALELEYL
Target sequence (Q15475 whole entry, looked up): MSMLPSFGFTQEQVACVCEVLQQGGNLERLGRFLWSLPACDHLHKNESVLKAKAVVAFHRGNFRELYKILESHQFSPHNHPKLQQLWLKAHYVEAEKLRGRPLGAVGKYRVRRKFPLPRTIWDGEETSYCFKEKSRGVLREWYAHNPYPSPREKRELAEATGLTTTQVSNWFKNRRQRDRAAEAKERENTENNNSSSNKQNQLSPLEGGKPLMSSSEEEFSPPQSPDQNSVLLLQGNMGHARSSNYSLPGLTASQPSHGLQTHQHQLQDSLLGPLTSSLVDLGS
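Six1/Eya2 binding was read as AlphaScreen signal after compounds were pinned into GST-Six1 plus His-tagged Eya2 (5X stock 250/500 nM) in pH 8.0 Tris/NaCl/TCEP buffer, beads added, then incubated 1 h, 37 C, dark.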
gsp agonist: gsp mutant agonism; gsp mutant cells, cAMP HTRF, 30 min; control for the full effect not named in the record; 0.13% of 340,000 active; AID 624287; Potency, µM (series often up to 76.9 µM), without a hit: at the highest dose activation (cAMP increase), usual class: activators; active = well fitted activation curve with a large enough effect; inconclusive = small, poorly fitted or top-dose-only effect, or another doubt; inactive = no such curve, though single readings can be large or run the other way; cell line not stated here;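 note: phosphodiesterase inhibitor Ro 20-1724 added with compounds to block cAMP breakdown; potency is the fitted concentration of half-maximal effect; nearly all actives have a fitted effect of over 60% in size; about a fifth of the inactives were tested at one dose only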
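Cells stably selected in G418 were plated at 2000/well, grown 16-24 hr, then given compounds in DMSO with the PDE inhibitor […] (300 uM solution added) for 30 min at 37C; cAMP was read by HTRF.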
Active calls of the source: *; ? = inconclusive; / = no result given; [ ] = remark or other dose.

gsp agonist	Six1-Eya2 blk	D2 PAM	D2 agonist	CtBP-E1A inh	gsp antagonist	structure
-6%	-5	-3	5.5	-15	-8%	c1ccc(OCCN2CCN(Cc3nc(-c4ccc5c(c4)OCO5)no3)CC2)cc1
-72%[inhibitor]	13	-4	-2.2	0	1%	NCCSC1CC(=O)N(c2ccc(Cl)c(Cl)c2)C1=O (stereo not given)
-31%[inhibitor]	-17	-8	-6.9	-14	-8%[15.4 µM]	COc1ccc2c(c1)C1(Nc3ccccc3-c3nc4ccccc4n31)C(=O)N2C (stereo not given)
6%[15.4 µM]	8	-4	1.8	3	-4%	CSCCC(NS(=O)(=O)c1ccccc1F)C(=O)NC(C)c1ccccc1 (stereo not given)
6%	-5	-7	5.7	/	?	CCOc1ccc(CNC(=O)CCCn2ccc3cc(S(=O)(=O)N4CCCC4)ccc32)cc1
23%	-1	10	-5.3	7	10%	Cc1c(Cl)cccc1NC(=O)C1=COCCO1
19%	0	-13	-2.5	-3	-9%	O=S(=O)(NCC(c1cccnc1)N1CCc2ccccc2C1)c1ccccc1 (stereo not given)
-7%	-9	-19	-3.4	11	4%	Nc1nc(SCC(=O)NCCCN2CCOCC2)nc2sc3c(c12)CCC3
-30%[inhibitor]	-3	-14	-5.9	-1	18%	O=C(NNC(=O)c1ccc([N+](=O)[O-])cc1)c1ccc(NS(=O)(=O)c2cccs2)cc1
2%	-16	-6	-1.7	-4	-1%	Cc1cc(C)nc(NS(=O)(=O)c2ccc(NS(=O)(=O)c3ccc(C#N)cc3)cc2)n1
8%[15.4 µM]	3	-3	-18	/	6%	CCOc1ccc(OCC)c(NC(=O)C2CCN(S(=O)(=O)c3c(C)[nH]c(=O)[nH]c3=O)CC2)c1
9%	0	-12	-4.6	7	10%	Cc1cccc(NC(=O)CCCN2C(=O)c3ccccc3C2=O)n1
11%	16	-1	1.4	1	?	CCN(C(=O)COC(=O)c1c(C)nsc1NC)c1ccccc1
9%	0	-2	3.6	0	-13%	CSc1nc2c(c(=O)[nH]1)C(c1ccccc1Cl)CC(=O)N2 (stereo not given)
-3%	-2	-15	-1.2	-2	28%	N/C(Cc1cccc2ccccc12)=N\OC(=O)c1cccs1
-15%[15.4 µM]	-10	-7	-2.2	2	-18%	Fc1ccc(/C=N/n2c(COc3ccccc3)n[nH]c2=S)cc1
/	-3	-3	1.2	0	-12%	COC(=O)[C@H](Cc1ccccc1)NC(=O)[C@@]1(C)C[C@@H]1[C@@H](NC(=O)OCc1ccccc1)c1ccccc1
2%[15.4 µM]	2	-34	-1.7	2	-8%	O=C(CN(c1ccc(Cl)cc1)S(=O)(=O)c1ccc(Cl)c([N+](=O)[O-])c1)NCCc1ccccc1
3%	8	-4	-4.0	0	2%	CCN(Cc1ccccc1)C(c1ccc(C)cc1)c1nnnn1C(C)(C)C (stereo not given)
-10%	0	19	0.3	7	8%	Cc1ccccc1NS(=O)(=O)c1ccc(C)c(C(N)=O)c1
/	3	5	-1.7	5	0%	C=C(C)[C@@H](O)COc1c2ccoc2cc2oc(=O)ccc12
1%[15.4 µM]	7	-14	-0.6	4	/	CCCNC(=O)c1ccc2c(c1)CCN2S(C)(=O)=O
-13%[15.4 µM]	3	3	-1.6	-14	8%	CC1CCC(NC(=O)CSc2nncs2)CC1 (stereo not given)
12%[15.4 µM]	1	-17	-8.1	-4	3%	O=C(N/N=C\c1cccnc1)c1ccccc1O
27%	-3	-10	-5.3	/	0%	Cc1cc(=O)oc2cc(OCC(=O)NCCCn3ccnc3)ccc12
-2%[15.4 µM]	-2	-12	-1.8	6	5%	CCCCCCSc1nnc(N)s1
7%[15.4 µM]	-6	4	1.0	0	-23%	Cc1ccc(-c2[nH]ncc2/C=N/n2c(COc3ccccc3C)nc3ccccc3c2=O)cc1
-28%	0	-7	7.5	3	-18%	COc1ccccc1CNC(=O)Cn1ccc2cc(S(=O)(=O)N3CCCC3)ccc21
1%[15.4 µM]	-7	-5	-0.6	-7	-20%	CCN(CC)S(=O)(=O)c1ccc(C)c(NC(=S)N2CCN(Cc3ccc4c(c3)OCO4)CC2)c1
-13%	0	-1	1.5	12	3%	COCCNC(=O)Cn1cc(C(=S)N2CCOCC2)c2ccccc21
0%	2	-3	4.5	0	-13%	O=C(COc1ccc(S(=O)(=O)NC2CCCCC2)cc1)Nc1ccc2c(c1)OCCO2
-7%	2	1	14	-2	?	Cc1c(NS(=O)(=O)c2ccc(C(=O)N(C)Cc3cccc(Cl)c3Cl)cc2)c(=O)n(-c2ccccc2)n1C
-2%	3	1	-3.2	-2	-1%	COc1ccc(Nc2nc(=O)[nH]nc2C)cc1
16%	-6	-10	2.5	-8	-6%	C(=N\Nc1ccccn1)/c1c[nH]c2ccccc12
32%	1	-8	-1.6	4	2%	CCCN1C(=O)C2(/C(=C(\O)c3ccc4c(c3)OCCO4)C(=O)C(=O)N2CCCOC)c2ccccc21 (stereo not given)
-6%[15.4 µM]	-1	-2	-3.2	-1	13%	COc1ccnc(Oc2ccccc2)c1C(N)=O
12%	5	-9	-2.9	4	2%	CC(C)OC(=O)CSc1nnc(-c2ccc(O)cc2)n1Cc1ccccc1
7%	-10	-24	-3.6	-21	-6%	COc1ccc(N(CC(=O)N2CCN(Cc3ccc4c(c3)OCO4)CC2)S(=O)(=O)c2ccc(F)cc2)cc1
10%	0	-2	4.8	-2	11%	CC12CN3CC(C)(CN(C1)C3c1ccc(Br)cc1)C2 (stereo not given)
17%[15.4 µM]	-3	-9	-8.3	0	1%	C/C=C/c1ccc(OCC(O)CN2CCCCC2CC)c(OC)c1 (stereo not given)
-6%[15.4 µM]	0	-5	-1.1	1	-4%	Cc1cc(C)cc(NC(=S)N2CCC(N(C)CC3CCCO3)CC2)c1 (stereo not given)
-14%	-7	-12	3.4	-2	5%	CCOc1ccc(CCNC(=O)COC(=O)Cc2c[nH]c3ccccc23)cc1OCC
-1%[15.4 µM]	5	-14	0.0	-2	-8%	Cc1cc(C)nc(Nc2nc3ccccc3o2)n1
5%	6	-7	-2.4	5	6%	CCC(CC)CN1CCN=C1N(C)C
-21%	0	7	0.3	-2	-22%	O=C(COc1ccc(Cl)cc1)Nc1ccc(Cc2ccncc2)cc1
-5%	0	-8	1.4	0	-10%	COc1cccc(CNC(=O)c2ccc3c(c2)S(=O)(=O)N=C2CCCCCN23)c1
6%	6	-18	-4.2	11	5%	CCN(CC)S(=O)(=O)c1ccc(OC)c(NC(=O)CSc2ccccc2)c1
9%[15.4 µM]	0	3	-3.9	-9	-1%	COc1ccccc1C(=O)NCCC(=O)Nc1nc2ccccc2[nH]1
16%	43	-9	-0.6	35	-13%	CCC(C(=O)O/N=C(\N)c1cccc(C)c1)c1ccccc1 (stereo not given)
6%[15.4 µM]	-3	4	1.8	-8	-3%	O=C(Nc1nc2ccccc2[nH]1)C1CCN(C(=O)c2ccc(F)cc2)CC1

Other records follow:
gsp agonist	Six1-Eya2 blk	D2 PAM	D2 agonist	CtBP-E1A inh	gsp antagonist	structure
-1%	2	-7	-3.5	5	16%	NS(=O)(=O)c1ccc(NC(=O)c2c(F)cccc2Cl)cc1
1%	-3	9	5.6	3	-28%	O=C(CSc1nc2c(c(=O)[nH]1)CCC2)Nc1cccc(F)c1
-23%	-1	16	4.5	/	-3%	O=C(Cc1cccs1)Nc1ccc(F)cc1
38%	1	-13	-2.1	/	-2%	CC(/C=N/NC(=O)c1ccccc1C)=C\c1ccccc1
4%[15.4 µM]	3	-5	-2.3	10	-5%	CCN(C(=O)COc1ccc(C)nc1[N+](=O)[O-])C1CCS(=O)(=O)C1 (stereo not given)
-17%	-10	-15	-0.5	2	-6%	Cc1ccc(NC(=O)COC(=O)/C=C/c2ccc(Br)o2)cc1S(=O)(=O)N(C)C
/	-13	-2	-3.4	5	/	COCCN(Cc1ccc(C)cc1)C(=O)[C@H]1O[C@@H](n2ccc(N)nc2=O)[C@H](O)[C@@H]1O
8%	16	-18	-3.8	11	-6%	Cc1nn(CC(=O)Nc2ccc(N3CCOCC3)cc2)c(C)c1Br
-14%[15.4 µM]	2	-3	-0.2	6	6%	Cc1ccc(OCC(=O)Nc2ccc(NC(=O)c3cccs3)cc2)c(C)c1
-1%	2	-3	10.0	0	18%	Cn1cccc1C(=O)NNC(=O)COc1ccccc1Cl
